fixLJ activator = increases Burkholderia fixLJ two-component signaling. z-score (concentration not given with the values). B. multivorans fixK-promoter GFP reporter, 18 h; stronger effect = higher value. AID 1918990. 29,000 compounds, 0.3% hits;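 active = replicate mean overnight rise in green fluorescent reporter signal, 3 or more SD over negative controls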;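 note: score is relative to vehicle wells of the plate; 300 nL library stock went into each well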
Active calls of the source: *; & = joins results of further samples. Only part of the results is shown. The share of hits here may be higher or lower than overall.

SMILES | fixLJ activator
CCCN(C)C(=O)c1cnc(C23CC4CC(CC(C4)C2)C3)[nH]c1=O | -0.7
COC[C@@]12CCC(N3CCOCC3)CC1CCN(c1ncc(C)c(N(C)C)n1)C2 (stereo partly specified) | -0.48
Cc1cc(C)c2oc(C(=O)Nc3c(C(=O)c4ccc(F)cc4)oc4ccccc34)cc(=O)c2c1 | 1.1
CCOc1ccc(OCC)c(NC(=O)Cn2nc(CC)n3c(cc4sccc43)c2=O)c1 | -0.2
COc1ccc(C2=CC(c3ccccc3Cl)n3nc(-c4ccc(C)cc4)nc3N2)cc1 (stereo unspecified) | -1.4
CSc1ccc(CCNC(=O)CN2C(=O)COc3ccc(S(=O)(=O)N4CCCCCC4)cc32)cc1 | 0.88
COc1cc2nc(N(C)CCCNC(=O)C3CCCO3)nc(N)c2cc1OC (stereo unspecified) | 0.5
CC1=C(C(=O)Nc2ccc(Cl)cc2)C(C(C)C)n2nc(SCc3ccc(Cl)cc3)nc2N1 (stereo unspecified) | -2.5
CCn1ccnc1-c1nccn1-c1cc(C(=O)OC)ccc1OC | -0.22
Cc1nn(CC(=O)NCc2ccccc2Br)c(=O)c2cc3occc3n12 | 1.1
CC(C)CCN(Cc1ccco1)C(=O)c1cc2c(s1)-c1ccccc1OC2 | 1.3
CCOC(=O)c1cncn1C(C)c1ccccc1 (stereo unspecified) | 0.01
CC(C)c1ccc(NC(=O)c2cc3sc(Cl)cc3n2C)cc1 | 0.7
COc1ccc(NC(=O)Cn2c(=O)n(CCc3ccccc3)c(=O)c3ccccc32)cc1 | -0.7
Cn1ccnc1-c1ccccc1C(=O)NCc1nc(-c2cnccn2)n[nH]1 | -1.7
O=C(CSc1nc2c(oc3ccccc32)c(=O)n1Cc1ccco1)Nc1ccccc1Cl | -0.67
Cc1ccccc1NC(=O)c1c(NC(=O)C(C)Oc2cccc(Cl)c2)sc2c1CCCC2 (stereo unspecified) | -1.5
COc1cccc(Nc2nc3ccc(C(=O)c4ccccc4)cc3n3c(C)nnc23)c1 | -2
CCOc1cc(C(=O)Nc2c(NC)c3ccccc3oc2=O)cc(OCC)c1OCC | 1.4
CC(=O)c1cc(-c2ccc(F)cc2)n(CCC(=O)NCc2ccccc2C)c1C | -2.1
CCc1nccn1CCCNC(=O)N1CCc2n[nH]c(C)c2C1 | -0.39
Cc1nc2c(C(=O)NCCc3ccc(Cl)cc3)c[nH]n2c(=O)c1Cc1ccc(Cl)cc1 | -2
COC1CN(c2nnc(-c3ccccc3)s2)CC1Cc1cc(C)no1 (stereo unspecified) | -0.31
Cn1nc2n(c1=O)CC(C(=O)NCCC1=CCCCC1)CC2 (stereo unspecified) | -0.56
COc1cc2nc(N3CCN(C(=O)c4ccco4)CC3)nc(N)c2cc1OC | -1.4&-2.2
CCOc1ccc(N(CC(=O)NCc2ccc(C)cc2)S(=O)(=O)c2c(C)[nH]c(=O)[nH]c2=O)cc1 | -0.06
Cc1c(NC(=O)C(F)(F)F)ccc2nc3c(=O)n(C)c(=O)n(C)c3nc12 | 2.7
CCOc1ccc2nc(C)cc(Nc3ccccc3OCC)c2c1 | -0.17
Cc1ccc(NC(=O)Cn2c(CCC(=O)O)ccc2-c2cccs2)cc1 | -0.13
Cc1nnc(N2C(=O)c3oc4ccccc4c(=O)c3C2c2cccc(OCCC(C)C)c2)s1 (stereo unspecified) | -3.2
COc1ccc(C2=NN(C(C)=O)C(c3cn(-c4ccccc4)nc3-c3cccs3)C2)cc1 (stereo unspecified) | 0.44
CSc1cccc(Nc2cc(C(=O)NC3CCCCC3)c3ccccc3n2)c1 | -0.98
CC(C(=O)NCc1nc2cc(C(F)(F)F)ccc2n1C)n1cnnn1 (stereo unspecified) | 1.9
COc1ccc(NC(=O)Cn2c(SCc3c(F)cccc3Cl)nc3ccncc32)cc1OC | 0.7
Oc1ccc(NCc2ccccc2OCc2ccccc2Cl)cc1 | -0.08
CCOc1ccccc1C(=O)Oc1c(S(=O)(=O)c2ccc(C)cc2)c(C)nn1-c1ccccc1 | -1.1
COc1cccc(NC(=O)CN(CCc2ccccc2)S(=O)(=O)c2ccc(Cl)cc2)c1 | -1.5
Cc1cccc(Cc2cnc(NC(=O)c3ccc4c(c3)CC(c3ccccc3)OC4=O)s2)c1 (stereo unspecified) | -2.2
Cc1ccc2[nH]c(=O)c3cc(C(=O)NCCc4ccc(Cl)cc4)sc3c2c1 | -0.25
COc1ccc(Cl)cc1NC(=O)CSc1nc(-c2ccco2)cc(C(F)(F)F)n1 | -0.61
Cc1cc(NC(=O)CC(C)C)cc(-c2nc3ncccc3o2)c1O | 0.06
Cc1cccc(-c2nnc(C3CCN(S(=O)(=O)c4cccc(Cl)c4)CC3)o2)c1 | -0.45
O=c1c2ccccc2n(Cc2cccc(F)c2)c(=O)n1Cc1ccccc1Cl | 0.08
CCc1ccc(-n2c(=O)c3c4c(sc3n(CC(=O)N3CCC(C)CC3)c2=O)CCC4)cc1 | -0.58
O=C(NCC1CCCN(C(=O)c2ccc3c(c2)ncn3CCO)C1)C1CCCC1 (stereo unspecified) | -0.59
Fc1ccc2c(c1)-c1nc(-c3ccccc3)cc(-c3ccccc3)c1CO2 | -0.51
Cc1nnsc1CN(C)C(=O)c1ccc2c(c1)CCCO2 | -0.52
CNC(=O)c1cccc(CNc2nc(C3CCCC3)nc3c2cnn3C)c1 | 2
CCc1nc(C)c(C(=O)NCCc2nccc(-c3ccccc3)n2)o1 | -0.15
O=C(NCCc1ccccc1)c1ccc2c(c1)N(Cc1ccccc1F)C(=O)c1ccccc1S2=O (stereo unspecified) | -2.1
COc1ccccc1CNC(=O)c1nn(-c2ccc(C)cc2)c(=O)c2c1c1ccccc1n2C | 1.5
CCOC(=O)c1ccc(NC(=O)c2nc(SCc3ccccc3F)ncc2Cl)cc1 | 0.3
N#Cc1cccnc1N1CCCC(c2nccn2Cc2ccncc2)C1 (stereo unspecified) | -2.9
COc1cccc2c1C1(CCN(C(=O)c3ccccn3)CC1)OCC2 | 0.69
Cc1cc(C)cc(NC(=O)CSc2nnc(CNC(=O)c3c(F)cccc3Cl)o2)c1 | -0.29
CCCOc1ccc(-c2nc(SCC(=O)c3ccc(Cl)cc3)n[nH]2)cc1 | -1.3
Cc1nnnn1-c1ccc(NC(=O)NC(c2ncnn2C)C(C)C)cc1 (stereo unspecified) | -1.4
COc1ccc(CNC(=O)C(=O)Nc2cc(Cl)ccc2OC)cc1 | 1.5
CCCn1c(SCc2nc(-c3ccc(OC)cc3OC)no2)nnc1-c1ccc(Cl)cc1 | -2.2
CCC1CCCCN1CC(=O)Nc1cc(C)c2c(=O)oc3ccccc3c2n1 (stereo unspecified) | -0.19

Further records follow:
SMILES | fixLJ activator
COc1cccc(NC(=O)C2CCN(S(=O)(=O)c3c(C)noc3C)CC2)c1 | -0.81
O=C(Cn1c(=O)oc2ccccc21)NCCCOC1CCCC1 | 0.08
Cc1ccc(-c2cc(C(F)(F)F)nn2-c2ccc(S(N)(=O)=O)cc2)cc1 | -1&-0.37
O=C(NCCCc1nc2ccccc2n1Cc1ccc(Cl)cc1)c1ccco1 | 0.36
Cc1cccc(Cc2c(C)nc3nc(SCC(=O)NC4CCCCC4)nn3c2C)c1 | -0.9
CSc1ccccc1NC(=O)NCc1ccccc1-n1ccnc1 | -2.7
COc1ccc(NC(=O)Cn2nnc3sc4c(c3c2=O)CCC(C)C4)c(OC)c1 (stereo unspecified) | 0.38
Cc1cc(=O)n2nc(N3CCC(C(=O)Nc4ccc(C)c(Cl)c4)CC3)sc2n1 | -2
C=Cc1c(C)/c2[n-]/c1=C\c1[n-]c(c(CC)c1C)/C=c1\[n-]c3c(c1C)C(=O)C(C(=O)[O-])C=3c1[n-]c(c(C)c1CCC(=O)[O-])\C=2.[Cu].[Na+].[Na+] (stereo unspecified) | -3.1
Cc1cccc(NC(=O)/C(C#N)=C/c2ccc(C)o2)c1 | 0.3
COC(=O)c1c(C)oc2c1cc(NS(=O)(=O)c1c(C)cc(C)cc1C)c1ccccc12 | 0.14
CCOc1ccc(CCNC(=O)c2cc3sc(CC)cc3n2C)cc1OCC | -1

A portion of the results above:
SMILES | fixLJ activator
CCCOc1ccc(-c2nc(SCC(=O)c3ccc(Cl)cc3)n[nH]2)cc1 | -1.3
Cc1nnnn1-c1ccc(NC(=O)NC(c2ncnn2C)C(C)C)cc1 (stereo unspecified) | -1.4
COc1ccc(CNC(=O)C(=O)Nc2cc(Cl)ccc2OC)cc1 | 1.5
CCCn1c(SCc2nc(-c3ccc(OC)cc3OC)no2)nnc1-c1ccc(Cl)cc1 | -2.2
CCC1CCCCN1CC(=O)Nc1cc(C)c2c(=O)oc3ccccc3c2n1 (stereo unspecified) | -0.19
COc1cccc(NC(=O)C2CCN(S(=O)(=O)c3c(C)noc3C)CC2)c1 | -0.81
O=C(Cn1c(=O)oc2ccccc21)NCCCOC1CCCC1 | 0.08
Cc1ccc(-c2cc(C(F)(F)F)nn2-c2ccc(S(N)(=O)=O)cc2)cc1 | -1&-0.37
O=C(NCCCc1nc2ccccc2n1Cc1ccc(Cl)cc1)c1ccco1 | 0.36
Cc1cccc(Cc2c(C)nc3nc(SCC(=O)NC4CCCCC4)nn3c2C)c1 | -0.9
CSc1ccccc1NC(=O)NCc1ccccc1-n1ccnc1 | -2.7
COc1ccc(NC(=O)Cn2nnc3sc4c(c3c2=O)CCC(C)C4)c(OC)c1 (stereo unspecified) | 0.38
Cc1cc(=O)n2nc(N3CCC(C(=O)Nc4ccc(C)c(Cl)c4)CC3)sc2n1 | -2
C=Cc1c(C)/c2[n-]/c1=C\c1[n-]c(c(CC)c1C)/C=c1\[n-]c3c(c1C)C(=O)C(C(=O)[O-])C=3c1[n-]c(c(C)c1CCC(=O)[O-])\C=2.[Cu].[Na+].[Na+] (stereo unspecified) | -3.1

Later entries.
SMILES | fixLJ activator
CC[C@@H](CO)NC(=O)[C@@H]1C=C2c3cccc4[nH]cc(c34)C[C@H]2N(C)C1 | 0.26
CC1CC(=O)N(CC(=O)Nc2ccc(F)cc2F)c2ccccc2S1 (stereo unspecified) | -0.44
COc1ccc(C(=O)N2CCC(c3c[nH]c4ccccc34)(c3c[nH]c4ccccc34)CC2)cc1 | 0.36
CCc1ccc(/C=C(/C#N)c2nc(-c3ccc(C)cc3)cs2)cc1 | -0.88
COc1ccc(-c2cc(C(F)(F)F)nc(SCCC(=O)Nc3ccc(OC)c(OC)c3)n2)cc1 | -2.8
CCc1ncc(C(=O)N2CCC(c3[nH]ncc3-c3cccc(C)c3)CC2)cn1 | 0.66
CCc1cccc(CC)c1NC(=O)CCS(=O)(=O)c1ccc(Br)s1 | 0.33
c1ccc(-c2nc(CN3CCOC4(CCN(c5ccncc5)CC4)C3)co2)cc1 | -0.86
CCC(C(=O)NCc1ccccc1)n1ncn2c(cc3occc32)c1=O (stereo unspecified) | -1.7
O=C(Nc1ccccc1F)c1oc2ccccc2c1NC(=O)C12CC3CC(CC(C3)C1)C2 | -1.8
O=C(Nc1nc2n(n1)C(c1ccccc1)C=C(c1ccc(Cl)cc1)N2)c1ccco1 (stereo unspecified) | -0.07
N#Cc1cc2c(=O)n3ccccc3nc2n(-c2nnc(SCc3ccc(F)cc3)s2)c1=O | -0.19
O=C(COc1ccc2oc3c(c2c1)CCCC3)Nc1ccc(Cl)cc1 | -1.3
Cc1oc2c(c1C(=O)N1CCN(CCn3cncn3)CC1)C(=O)CCC2 | -1.6
Cc1ccc2c(c1)-c1c(cnn1CC(=O)N1CCN(c3cc(Cl)ccc3C)CC1)CO2 | -2.1
CC1CCC(NC(=O)c2ccc(CSc3nc4ccncc4n3Cc3ccc(F)cc3)cc2)CC1 (stereo unspecified) | -7.5
CN(c1ccccc1)S(=O)(=O)c1ccc(NC(=O)c2cc(=O)c3ccccc3o2)cc1 | -2
Cc1ccc(CCNC(=O)c2ccc(NC(=O)N3CCSc4ccccc43)cc2)cc1 | -0.1
Cc1ccc(C(=O)c2oc3ccccc3c2NC(=O)Cc2coc3cc(C)ccc23)cc1 | -1.1
CCN(C(=O)Cn1nc(Cc2cccnc2)c2ccccc2c1=O)c1ccccc1F | -0.03
O=C1CC(c2c(Cl)cccc2Cl)c2c(ccc3ccccc23)N1 (stereo unspecified) | -0.29
OC1(c2ccccn2)CCN(CCn2cc(Cl)cn2)CC1 | -1.2
COc1cc(OC)cc(N2CCN(S(=O)(=O)c3ccc(-n4cnnn4)cc3)CC2)c1 | 0.61
COc1cc2nc(SCC(=O)Nc3c(C)cc(C)cc3C)n3nc(CCn4c(C)nc5ccccc54)nc3c2cc1OC | 0.16
COc1cc(C(=O)Oc2c(Sc3ccc(C)cc3)c(C)nn2-c2ccccc2)cc(OC)c1OC | -0.05
CCc1nc(CN2C(=O)C3(CCNCC3)Nc3ccccc32)no1 | -2.7
COc1cc2[nH]c(=O)n(Cc3ccc(C(=O)N4CCN(c5ccc(Cl)cc5)CC4)cc3)c(=O)c2cc1OC | -0.62
CCc1cccc(CC)c1NC(=O)CCS(=O)(=O)c1ccc2c(c1)CCN2C(C)=O | 0.27
COc1ccc(C(=O)c2ccccc2O)c(O)c1 | 0.25
Cc1sc2ncn(CC(=O)N3CCN(c4cccc(Cl)c4)CC3)c(=O)c2c1S(=O)(=O)N1CCC(C)CC1 | 1.6
COc1cccc(/C=C/c2nc(C#N)c(N3CCCCC3)o2)c1 | -1.1
CC(Cn1cccn1)NC1CCN(C(=O)c2cccnc2)CC1 (stereo unspecified) | -2
COc1ccc(CCCn2ccnc2-c2cnn3cccnc23)cc1 | 0.9
Cn1c(=O)oc2cc(S(=O)(=O)N3CCCC(C(=O)N4CCN(c5ccccc5F)CC4)C3)ccc21 (stereo unspecified) | -0.98
COc1ccc(C2Nc3ccccc3-c3nnc(SC)nc3O2)cc1C (stereo unspecified) | -0.17
CCCCn1c(=O)nc2n(-c3ccc(F)cc3)c3ccccc3cc-2c1=O | -1
COc1ccc(CCNc2nc3ccc(C)cc3n3cnnc23)cc1OC | -1.6
O=c1[nH]c(C2CCCN(S(=O)(=O)c3ccccc3Cl)C2)nc2c1nnn2Cc1ccc(OC(F)(F)F)cc1 (stereo unspecified) | -0.91
CCn1cc(C(=O)OCC(=O)Nc2cccc(C(C)=O)c2)c(=O)c2ccc(C)nc21 | -1.6
COc1ccc(NC(=O)CN2C(=O)C(c3ccc(C)cc3)=NC23CCCCCC3)cc1Cl | -2
Cc1ccccc1-c1nnc(CN2CCN(c3cc(Cl)ccc3C)CC2)o1 | 0.09
CCCCSCCCNC(=O)C1CCN(Cc2nc(-c3cccc(Br)c3)oc2C)CC1 | -1.3

Screens from PubChem BioAssay.
